# Bioassay records from PubChem BioAssay.
# HIV TAR-Tat: HIV-1 TAR-Tat binding disruption. HIV-1 TAR RNA, Tat peptide displacement FRET; hits give high values. AID 1259389. actives 0.6% (n = 100,000). z-score (no concentration beside the values);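 also: score is relative to mean and SD of negative controls; some compounds called inactive have numbers as strong as hits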
# CDC25B CDK2 inh: human CDC25B-CDK2/CyclinA binding inhibition | z-score (test concentration not listed) | actives 0.72% (n = 94,000) | HTRF CDC25B-CDK2/CyclinA binding, anti-His/anti-Flag; hits give high values | AID 1259370;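 also: score is relative to mean and SD of negative controls; strong numbers were not always called active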
# Active calls of the source: *; · = not tested or not shown; & = joins results of further samples.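 The calls were made as follows: active = z-score from 3 up in half or more of its runs; inactive = the rest.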
SMILES,HIV TAR-Tat,CDC25B CDK2 inh
COc1cccc(-c2noc(Nc3ccc4c(c3)OCO4)n2)c1,0.44,·
CC(C)c1ccc(-c2nn3c(=O)c(NC(=O)c4ccc(Cl)cc4)cnc3o2)cc1,0.89,·
Cc1cc(N2CCn3c(nc4cc(Cl)ccc43)C2)ccc1NS(C)(=O)=O,-0.19,0.86
COc1ccc(-c2nc(C#N)c(NCCN(C)C)o2)cc1,3.7,-0.87
COC(=O)c1cc(=O)nc(NC(=O)Nc2c(-c3c(Cl)cccc3Cl)noc2C)s1,·,-3.78
O=c1c2nccnc2nc(SCc2cccc(Cl)c2)n1Cc1ccc2c(c1)OCO2,-1.46,·
COC(=O)c1ccc(CSc2ccccn2)cc1,·,-0.42
Cc1ccc(S(=O)(=O)NCCn2c(-c3ccccc3)nc3cccnc32)cc1,-0.09,·
COc1cc(-c2nc3c[n+](CC(=O)C(C)(C)C)ccc3n2C)cc(OC)c1OC,·,-1.17
C#CCOC(=O)Nc1cnc(N(C)C)c(C(F)(F)F)c1,·,-1.35
C=C1Cc2c(Cl)cc3[nH]c4c5c3c2[C@@]2(O)[C@@H]1C[C@@H]2C(C)(C)O[C@H]5[C@@H]1CC[C@@]2(O)[C@@]35O[C@@H]3[C@@H](O)[C@@H](C(=O)O)O[C@H]5CC[C@]2(C)[C@@]41C,1.53,·
Cc1c(C(=O)NC2CCCC(C)C2C)sc2nc3n(c(=O)c12)CCCCC3 (centres undefined),1.36,·
CS(=O)(=O)c1csc(C(=O)Nc2cccc(Cl)c2)c1Cl,·,-0.97
O=C(O)c1cnc(NCc2ccccc2)s1,·,-1.06
O=C(Nc1ccccc1F)N1CCC2(CC1)Nc1cc(F)ccc1-n1cccc12,0.18,·
Cn1c2c(c(=O)n(C)c1=O)C(c1ccccc1OCc1ccccc1)CC(=O)N2 (centres undefined),1.36,1.04
CN(CC(=O)NC1CC1)c1nnc(N2CCCCC2=O)s1,1.71,·
COc1ccc(-c2noc3ncn(CC(=O)O)c(=O)c23)cc1,0.2,-1.96
CCn1c(C(=O)N2CCC(C(=O)N3CC(C)CC(C)C3)CC2)cc2sccc21 (centres undefined),-1,0.02
Cc1ccc(/C(O)=C2\C(=O)C(=O)N(c3nnc(C)s3)C2c2ccccc2F)cc1 (centres undefined),·,-2.83
Cc1cc2nc(NC3=NCN(Cc4cccnc4)CN3)nc(C)c2cc1C,0.7,2.8
Cc1ccccc1Cn1nc(C)c2c(C)onc2c1=O,-0.8,·
O=c1c2ccccc2ncn1Cc1noc(-c2cccc(Cl)c2)n1,1.08,·
COc1ccc(Cn2c(CO)cnc2SCc2cccc(Cl)c2)cc1,1.62,·
C=CCN(C(=O)Cn1ncc2c1-c1ccccc1OC2)c1ccccc1,0.49,-1.25
O=C(Cn1c(=O)n(-c2ccc(F)cc2)c(=O)c2sccc21)NCC1CCCO1 (centres undefined),·,-0.21
O=C(O)C1OC(c2cccc(Cl)c2)=NC12CC2 (centres undefined),·,-1.28
CCC(=O)NCc1csc(C)n1,0.91,-1.3
CC(C)CCNC(=O)c1c(O)nc2ccccn2c1=O,0.62,-1.61
Cc1nn(C)c(C)c1CNC(=O)Nc1cc(F)ccc1F,0.34,·
N#CC1=C2SCN(C3CCCCC3)CN2C(=O)CC1c1ccc(Cl)cc1 (centres undefined),-2.18,0.07
COc1ccc(CCn2c(=O)[nH]c(=O)c3sc(N)nc32)cc1OC,1.1,0.08
Cc1csc(NC(=O)C(C)N2C(=O)c3ccccc3S2(=O)=O)n1 (centres undefined),1.86,·
COc1ccccc1OCCn1cc(C(=O)c2ccco2)c2ccccc21,1.27,-0.96
COc1ccc(-c2cc(C)no2)cc1S(=O)(=O)NCCCc1ccco1,0.82,·
O=C1Cn2c(nc3ccccc32)N1c1ccccc1F,-2.21,-1.75
CCN=c1cc2oc3cc(NCC)c(C)cc3c(-c3ccccc3C(=O)O)c-2cc1C,-5.56,0.68
COc1nc2ccccc2nc1CCC(=O)O,-3.16,-0.95
COc1ccc(-c2nn3c(N4CCN(c5nc(C)cc(C)n5)CC4)cc(C)nc3c2C)cc1OC,0.97,-0.93
O=C(NCc1ccc(S(=O)(=O)NCCSCc2ccco2)s1)c1ccccc1,·,-1.47

# Another view of some results above:
N#CC1=C2SCN(C3CCCCC3)CN2C(=O)CC1c1ccc(Cl)cc1 (centres undefined)
  HIV TAR-Tat = -2.18
  CDC25B CDK2 inh = 0.07

Cc1csc(NC(=O)C(C)N2C(=O)c3ccccc3S2(=O)=O)n1 (centres undefined)
  HIV TAR-Tat = 1.86
  CDC25B CDK2 inh = ·

COc1ccc(-c2cc(C)no2)cc1S(=O)(=O)NCCCc1ccco1
  HIV TAR-Tat = 0.82
  CDC25B CDK2 inh = ·

COc1nc2ccccc2nc1CCC(=O)O
  HIV TAR-Tat = -3.16
  CDC25B CDK2 inh = -0.95

# Carrying on.
SMILES,HIV TAR-Tat,CDC25B CDK2 inh
COc1cc(C2C(C#N)=C(N)Oc3cc4c(cc32)OCO4)ccc1OCc1ccccc1F (centres undefined),·,-0.28
Cc1ccn2c(=O)c(NC(=O)c3ccc(F)cc3F)c(C)nc2c1,-0.97,·
Fc1ccc(-n2nnc(-c3ccccc3Br)n2)cc1,-0.57,-1.24
c1coc(C2NCCc3ccccc32)c1 (centres undefined),·,-3.19
CCc1nc2cccnc2n1CCN1CCNCC1,0.99,·
Cn1c(=O)oc2cc(S(=O)(=O)N3CCN(Cc4ccc5c(c4)OCO5)CC3)ccc21,·,-0.85
COc1ccccc1CNc1nc(N2CCCC2)nc2c1cnn2C,1.36,·
Cc1cc(=O)c2ccccc2[nH]1,·,-1.74
Cc1cccc(CN[C@H]2CS(=O)(=O)C[C@@H]2S(=O)(=O)c2ccc(Cl)cc2)c1,1.36,-0.75
Cc1ccc(Nc2nc(Oc3ccc(=O)[nH]n3)nc(N(C)C)n2)cc1C,0.81,-0.6
CCOC(=O)c1cnc2cc(C)[nH]n2c1=O,2.01,-1.43&-0.78
CC1CCN(c2nc(-c3ccncc3)nc3ccccc23)CC1,1.35,-1
CCOc1cc(C)[nH]n1,·,-1.87
O=C(Nc1c2c(nn1-c1ccc(Cl)cc1)CSC2)C(=O)NC1CCCCC1,0.89,·
CC(C)c1nnc2sc(-c3ccc4c(c3)OCO4)nn12,1.11,-1.23
CCOC(=O)c1c(C)oc2ncnc(N3CCN(C(=O)OCC)CC3)c12,-0.35,0.07
Cc1ccccc1-n1cc(-c2ccccc2)c2c(NC(C)C)ncnc21,-0.41,2.52
CCSc1nnc(NC(=O)CN2C(=O)CCc3cc(Br)ccc32)s1,1.38,·
CSCCC(NC(=O)c1ccc(C(F)(F)F)cc1)C(=O)NN (centres undefined),·,-1.12
O=C(NCCCN1CCCCC1)c1cc(=O)[nH]c2ccc(S(=O)(=O)N3CCCCCC3)cc12,·,0.74
O=C(OCCNc1nc(-c2ccccc2)nc2ccccc12)c1ccncc1,-0.28,2.05
COc1ccccc1C1CC(c2c(O)n(C)c(=O)n(C)c2=O)=Nc2ccccc2S1 (centres undefined),2.08,-2.65
COc1cc(C(=O)ON=C2C3CC4CC(C3)CC2C4)cc(OC)c1OC,·,-1.35
CCCCNC(=O)C(CC)N1C(=O)CCn2nc(C)cc21 (centres undefined),1.3,·
COc1cc(OC)c2c(=O)c(O)c(-c3ccc(OC)c(OC)c3)oc2c1,1.94,·
CC(C)Cc1nn2c(=O)cc(CSc3ccccc3N)nc2s1,-0.34,·
O=C(Nc1ccc(F)cc1F)N1CCN2C(=O)c3ccccc3C12c1ccc(Cl)cc1 (centres undefined),·,-0.97
NC(=O)C1CCN(C(=O)c2cnn(-c3ccccc3)c2NC(=O)c2cccc(F)c2)CC1,·,-0.2
CCC(C)NC(=O)C1CCN(c2nn3c(=O)c4c(nc3s2)CCCC4)CC1 (centres undefined),0,·
NC(=S)NN=C1c2cc(S(=O)(=O)NCc3ccco3)ccc2-c2ccc(S(=O)(=O)NCc3ccco3)cc21,·,-0.95
CCn1nc(C)c(CNC(=O)Nc2ccccc2F)c1C,0.68,·
COc1ccc(NC(=O)c2cc3c(s2)-c2ccc(Cl)cc2S(=O)(=O)C3)cc1Cl,1.26,-0.12
O=c1c2ccccc2nc(CSc2nnnn2-c2ccccc2)n1-c1ccccc1,·,-0.73
COc1ccc(NC(=O)CSc2nc(-c3ccco3)nc3c2c(=O)n(C)c(=O)n3C)c(OC)c1,·,-1.3
O=C(Cc1ccccc1Cl)NC1(O)C(=O)c2ccccc2C1=O,·,-2.59
CCn1c(CC2C(=O)N(Cc3ccccc3)c3ccc(Br)cc32)nc2ccccc2c1=O (centres undefined),2.33,0.38
CN(C)CCCNC(=O)c1cc2c(n(-c3ccc(Cl)cc3)c1=O)CCCC2=O,-0.77,-0.44
Cc1ccc(S(=O)(=O)CCSc2nccn2C)cc1,·,-1.86
CCOC(=O)C1CCN(c2cc(=O)n(C)c(=O)n2C)CC1,·,-0.72
CCCOc1ccc(-c2cccc(NS(=O)(=O)c3ccc4c(c3)OCCO4)c2)nn1,-0.27,·

# 7 of the compounds above, with values under each structure.
# Each structure is followed by: HIV TAR-Tat	CDC25B CDK2 inh
> COc1ccc(NC(=O)CSc2nc(-c3ccco3)nc3c2c(=O)n(C)c(=O)n3C)c(OC)c1
 : ·	-1.3
> O=C(Cc1ccccc1Cl)NC1(O)C(=O)c2ccccc2C1=O
 : ·	-2.59
> CCn1c(CC2C(=O)N(Cc3ccccc3)c3ccc(Br)cc32)nc2ccccc2c1=O (centres undefined)
 : 2.33	0.38
> CN(C)CCCNC(=O)c1cc2c(n(-c3ccc(Cl)cc3)c1=O)CCCC2=O
 : -0.77	-0.44
> Cc1ccc(S(=O)(=O)CCSc2nccn2C)cc1
 : ·	-1.86
> CCOC(=O)C1CCN(c2cc(=O)n(C)c(=O)n2C)CC1
 : ·	-0.72
> CCCOc1ccc(-c2cccc(NS(=O)(=O)c3ccc4c(c3)OCCO4)c2)nn1
 : -0.27	·

# (further entries)
SMILES,HIV TAR-Tat,CDC25B CDK2 inh
CCCN(CCC)CCNc1c(-c2ccccc2)c(=O)c1=O,1.85,·
COCc1nc(-c2cc3ccc(C)cc3[nH]c2=O)no1,1.85,1.84
CC1=C(C(=O)O)N2C(=O)[C@@H](NC(=O)C(N)c3ccccc3)[C@H]2SC1 (some centres undefined),-0.66,-1.96
COc1ccc(CCNc2ncnc3onc(-c4ccccc4OC)c23)cc1OC,0.85,·
CN(CC(=O)N1CCN(c2ccccn2)CC1)c1nnc(N2CCCCC2=O)s1,1.03,·
COc1ccc(C2CC(C(F)(F)F)n3ncc(C(=O)NCC4CCCO4)c3N2)cc1OC (centres undefined),0.16,-1.33
O=C(c1cnc2sc3c(n2c1=O)CCCC3)N1CCN(c2ccc(F)cc2)CC1,0.76,·
CC1(C)CCc2cc(/C=C(\C#N)S(C)(=O)=O)ccc2O1,·,-2.46
O=C(Cn1cnc2scc(-c3ccccc3)c2c1=O)N1CCCC1,1.37,-2.72
O=S(=O)(NC1CCCC1)c1cccc2cccnc12,·,-0.85
Cc1ccc(-c2cc3ncc(C(=O)c4cc(Br)ccc4O)cn3n2)cc1,1.11,0.46
CCc1cc2c(N3CCN(Cc4ccccc4)CC3)ncnc2s1,·,0.2
Cn1c(=O)c2c(nc(CN3CCN(CCO)CC3)n2Cc2ccc(Cl)cc2)n(C)c1=O,-0.21,-0.37
O=C(CSc1oc(-c2cccs2)nc1S(=O)(=O)c1ccccc1)NCC1CCCO1 (centres undefined),-2.28,0.18
CC1(C)CC(=O)C2=C(C1)Nc1ccccc1NC2c1ccco1 (centres undefined),·,-1.98
Cc1ccc(-n2c(N)c(C(=O)NCC3CCCO3)sc2=S)cc1 (centres undefined),0.3,·
CN(C)CCN(Cc1ccco1)C(=O)c1cc2c(s1)-c1ccc(Cl)cc1SC2,2.17,-1.3
Cc1ccc(OCc2nc3ccc(F)cc3[nH]2)cc1,2.14,-1.25
CN(C)CCCN(C(=O)CN1C(=O)CCC1=O)c1nc2c(F)cc(F)cc2s1,1.45,·
Cc1ccc(OCCOCCOc2ccc(Br)cc2/C=c2\sc3nc4ccccc4n3c2=O)cc1,·,-4.63
CCSc1nc(-c2ccc(OC)cc2)nc2c1Cc1c(CO)cnc(C)c1O2,-0.4,·
Cc1ccc(S(=O)(=O)n2nc(-c3ccco3)nc2NCc2cccc(Br)c2)cc1,0,-0.1
O=S(=O)(NCc1cccn1Cc1ccc(Cl)cc1)c1ccccc1Cl,0.49,·
COc1ccc(S(=O)(=O)N(C)C2CCCCC2)cc1-c1nnc2c3ccccc3c(C)nn12,0.14,-1.37
CC(C)c1ccc(S(=O)(=O)N(CCS(=O)(=O)N2CCNCC2)CC(C)c2ccccc2)cc1 (centres undefined),3.43,·
Cc1cc(Cl)cc(Cl)c1OCC(=O)Nc1ccc2oc(-c3ccncc3)nc2c1,·,-1.54
O=C(NCCCN1CCCC1)C(=O)Nc1ccc2nc3n(c(=O)c2c1)CCCCC3,0.7,0.16
CCc1nnc(NC(=O)c2c(C)nn(-c3ccc(F)cc3)c2-n2cccc2)s1,1.41,·
O=[N+]([O-])c1c(Nc2ccc(Cl)cc2)n[nH]c1-c1nnco1,2.41,0.51
COc1ccccc1Nc1snc2[nH]c(C(=O)c3ccc(C)cc3)cc12,·,-1.36
COC(=O)C1CCN(C(c2ccco2)c2sc3nc(C)nn3c2O)CC1 (centres undefined),·,-1.43
O=C(c1cc2c(s1)-c1ccc(Cl)cc1S(=O)(=O)C2)N1CCOCC1,3.03,-1.88
CC(C)N(C(=O)Cn1c(C2CC(=O)N(c3cccc(Cl)c3)C2)nc2ccccc21)c1ccccc1 (centres undefined),0.76,-1.78
COc1ccc(-c2noc(COc3ccc(C)cc3)n2)cc1OC,·,-1.77
NC(=O)C1CCN(C(=O)CN2c3ccccc3NC3=C(C(=O)CCC3)C2c2ccco2)CC1 (centres undefined),-8.97,·
O=C(Nc1ccc(F)cc1)N1CCn2c(nc3ccccc32)C1,1.91,-1.28
O=C(NCC1CC1)c1ccccc1NS(=O)(=O)c1cc(Cl)sc1Cl,·,0.91
COC(=O)c1ccc(C2CC(=O)Nc3c2c(=O)nc(SCc2ccccc2F)n3C)cc1 (centres undefined),1.56,-1.2
